Screens as filed in PubChem.
nsP2pro inh: blocks chikungunya virus nsP2 protease peptide cleavage; Q8JUX6; FRET peptide cleavage, nsP2pro, fluorescence 1 h; Potency, µM (doses to about 24.9 µM), without a hit: top-dose activity change, negative = inhibition, actives largely listed as inhibitors; hit rate 1.1% among 31,000; AID 1964107; active means well fitted inhibition curve with a large enough effect; inconclusive means small, poorly fitted or top-dose-only effect; inactive means no such curve, though single readings can be large or run the other way; also: nearly all actives have a fitted effect of over 60% in size; a reference inhibitor and vehicle were the controls
* = called active by the depositor; ? = inconclusive; & = joins results of further samples; [ ] = dose if it differs, or a comment. % is scaled to controls: 0 for no effect and ±100 for the full control effect; potency is read from the fitted curve at half-maximal effect. Some of the compounds tested; count on the stated rates, not on these rows.

SMILES	nsP2pro inh
O=C(Nc1ccc(Oc2ccnc3[nH]ccc23)c(F)c1)c1cccn(-c2ccc(F)cc2)c1=O	52%
CC(C)(C)c1ccc(S(=O)(=O)c2cnc(SCC(=O)Nc3ccc(F)c(Cl)c3)[nH]c2=O)cc1	?
COc1cc2nc(C3CC3)nc(N3CCN(c4ccccc4OC)CC3)c2cc1OC	24%
CN1C(=O)CC(C)(c2ccccc2)C1=O (configuration not stated)	13%
COc1ccc(F)c(F)c1C(=O)c1cnc(NC2CCN(S(C)(=O)=O)CC2)nc1N	-2%
O=C(O)CCNc1cc(N2CCc3ccccc3CC2)nc(-c2ccccn2)n1	45%[activator][5.1 µM]
O=c1cc(-c2ccc(O)cc2)oc2cc(O)c(O)c(O)c12	9%
CN(C)CCN(Cc1ccc(-c2ccc(CNCCc3ccccc3)cc2)cc1)C(=O)CCC1CCCC1	160%[activator]
Cc1ccsc1/C=C/C1=NCCCN1C	-14%
CCC(C)n1ncn(-c2ccc(N3CCN(c4ccc(OC[C@H]5CO[C@](Cn6cncn6)(c6ccc(Cl)cc6Cl)O5)cc4)CC3)cc2)c1=O (some centres not stated)	19%
CCCCCCCCCC(=O)O	-16%
NC(=O)c1ccc([N+](=O)[O-])cc1Cl	-6%
CC(C)(C)CC(=O)OCC(=O)[C@@]1(O)CC[C@H]2[C@@H]3CCC4=CC(=O)C=C[C@]4(C)[C@H]3[C@@H](O)C[C@@]21C	2%
Cc1cc(C)c2c(c1)C(N(Cc1cc(C(F)(F)F)cc(C(F)(F)F)c1)c1nnn(C)n1)CCCN2CC1CCC(C(=O)O)CC1 (configuration not stated)	?
COc1ccc(C(=O)N2CCC(c3noc(-c4ccncc4)n3)C2)cn1 (configuration not stated)	2%
CCCCc1c(-c2ccc(OC)cc2)[nH]c2nccnc12	-12%
Cc1noc(-c2ccc(-c3ccc(CC(=O)O)cc3)cc2)c1NC(=O)O[C@H](C)c1ccccc1	26%
Cc1oc2ccccc2c1CNC(=O)NCc1cccs1	-14%
O=C(c1ccc(/C=C/c2n[nH]c3ccccc23)cc1)N1CCNCC1	58%
CCC(Cc1c(I)cc(I)c(N)c1I)C(=O)O (configuration not stated)	9%
Cn1cnc2c(F)c(Nc3ccc(Br)cc3F)c(C(=O)NOCCO)cc21	-7%&16%
OC(c1ccc(-c2ccc(CN3CCN(Cc4ccncc4)CC3)cc2)c(F)c1)(C(F)(F)F)C(F)(F)F	16%
Cn1ncnc1COc1nn2c(-c3cc(F)ccc3F)nnc2cc1C(C)(C)C	-5%
Cc1nc(Nc2n[nH]c3c2CN(C(=O)N[C@H](CN(C)C)c2ccccc2)C3(C)C)c2sccc2n1	22%
NC(=O)NC(=O)Cc1ccccc1	2%

The list continues:
SMILES	nsP2pro inh
CC(C)(C)c1ccc(-c2nc3c(N4CCN(Cc5ccc6nccnc6c5)CC4)cccc3[nH]2)cc1	21%
O=c1[nH]ccc2cc(OC3CCNCC3)ccc12	?
COc1cc(CCC2=NN=C(NC(=O)c3ccc(N4C[C@@H](C)N[C@@H](C)C4)cc3)C2)cc(OC)c1	247%[activator]
O=C(c1ccccc1)c1ccc2n1CCC2C(=O)O (configuration not stated)	-4%
COc1cccc2c(NCc3ccccc3)nc(-n3c(N)nc4ccccc43)nc12	37%&44%[activator]
CCCCNc1ncc2c(-c3ccc(S(=O)(=O)N4CCOCC4)cc3)nn(C3CCC(O)CC3)c2n1 (configuration not stated)	29%
OCCOCCOCCO	23%
CC1CCc2c(N3CCC(O)CC3)c(F)cc3c(=O)c(C(=O)O)cn1c23 (configuration not stated)	-4%
CCCCN(CCCC)CC(O)c1cc(Cl)cc2c1-c1ccc(Cl)cc1/C2=C/c1ccc(Cl)cc1 (configuration not stated)	-2%
COc1cc(C)nc(-n2nc(C)cc2OC)n1	-1%
COc1cc(N(C)CCN(C)C)c(N)cc1Nc1nccc(-c2cn(C)c3ccccc23)n1	98%[activator]
C=C1CCC[C@]2(C)C[C@]3(O)OC(=O)C(C)=C3C[C@@H]12	-6%
CCC(=O)O[C@]1(C(=O)COC)[C@@H](C)C[C@H]2[C@@H]3CCC4=CC(=O)C=C[C@]4(C)C3(F)[C@@H](O)C[C@@]21C (some centres not stated)	0%
CC(C)(CO)[C@@H](O)C(=O)NCCCO	-18%&-1%
CCOc1ccc(Nc2nc(-c3c(C)nc4ccccn34)cs2)cc1	-3%
CC1CCCCN1S(=O)(=O)c1ccc(N2CCCC2=O)cc1 (configuration not stated)	-13%
Cc1cc(O)c2c(c1)C(=O)c1cccc(O)c1C2=O	?
CCCCC(=O)O[C@]1(C(=O)CO)[C@@H](C)C[C@H]2[C@@H]3CCC4=CC(=O)C=C[C@]4(C)[C@@]3(F)[C@@H](O)C[C@@]21C	8%
CCOC(=O)Nc1ccc2c(c1)N(C(=O)CCN1CCOCC1)c1ccccc1S2	15%
CC(C)(C)Sc1c(CC(C)(C)C(=O)O)n(Cc2ccc(Cl)cc2)c2ccc(OCc3ccc4ccccc4n3)cc12	28%
Cc1ccc(C(=O)C(C)CN2CCCCC2)cc1 (configuration not stated)	-5%&-1%
Cc1ccccc1C(C(=O)NC1CCCCC1)N(C(=O)Cn1ccnc1C)c1cccc(F)c1 (configuration not stated)	10%&6%
CCCc1cc(C(N)=S)ccn1	2%
CCS(=O)(=O)N1CCN(c2ccc(Nc3ncc(C(N)=O)c(NC4CC4)n3)cc2)CC1	-11%
COc1ccc(C#Cc2ccc(C(=O)N3CCC[C@@H](CO)C3)cc2)cc1	-6%

Further records follow:
SMILES	nsP2pro inh
Cc1cccc(/C=N/Nc2cc(N3CCOCC3)nc(OCCc3ccccn3)n2)c1	5%
O=C(O)c1n[nH]c2c1C[C@H]1C[C@@H]21	-13%
Cc1[nH]c(/C=C2\C(=O)Nc3ccc(F)cc32)c(C)c1C(=O)NCCN1CCCC1	30%[10 µM]
COC(=O)Nc1nc2ccc(S(=O)c3ccccc3)cc2[nH]1 (configuration not stated)	13%
C[C@H](NCc1ccc(OCc2ccccc2F)cc1)C(N)=O	-2%
C[C@]12CCCN1CC1=NNC(=O)c3cc(F)cc4[nH]c2c1c34	-11%
COc1cc2c(cc1OC)CN(CCc1ccc(NC(=O)c3cccc4c(=O)c5cccc(OC)c5[nH]c34)cc1)CC2	122%&80%[activator]
Cc1[nH]c(/C=C2\C(=O)Nc3ccc(F)cc32)c(C)c1C(=O)NC[C@H](O)CN1CCOCC1	?
O=C1CCc2cc(OCCCCc3nnnn3C3CCCCC3)ccc2N1	?
NC(=O)c1c(OCc2c(F)cc(Br)cc2F)nsc1NC(=O)NCCCCN1CCCC1	122%[activator]
COc1ccc(Cl)c(Nc2ncnc3cc(OCC4CCN(C)CC4)c(OC)cc23)c1	0%
COc1ccccc1OC(=O)Oc1ccccc1OC	-10%
CNS(=O)(=O)CC1CCC(N(C)c2ncnc3[nH]ccc23)CC1 (configuration not stated)	-11%&-8%
CC(C)(C(=O)c1cccnc1)c1cccnc1	-12%&9%
CC(=O)O[C@@]12CO[C@@H]1C[C@H](O)[C@@]1(C)C(=O)[C@H](O)C3=C(C)[C@@H](OC(=O)[C@H](O)[C@@H](NC(=O)OC(C)(C)C)c4ccccc4)C[C@@](O)([C@@H](OC(=O)c4ccccc4)[C@H]21)C3(C)C	7%
O=C(Nc1cccc(C(F)(F)F)c1)Nc1cc(S(=O)(=O)NC2CC2)ccc1-c1ccsc1	9%&19%
CCOc1c(N2CCOCC2)cnn(C)c1=O	-3%
COc1ccc(Sc2ccc(NC(=O)c3ccccc3Cl)cc2C#N)cc1	34%
c1ccc2c(Oc3nc(Nc4ccc(N5CCOCC5)cc4)c4ncn(C5CCCCC5)c4n3)cccc2c1	13%
OCCOCCN1CCN(C(c2ccccc2)c2ccc(Cl)cc2)CC1 (configuration not stated)	18%
COc1ccc2cc(-c3nc(-c4ccc(S(C)=O)cc4)[nH]c3-c3ccncc3)ccc2c1 (configuration not stated)	217%[activator]
Cc1cc(CN2CCN(c3c(Br)cnc4nc(-c5ccc(N6CCN(C)CC6)cc5)[nH]c34)CC2)no1	66%[activator]
CNS(=O)(=O)c1ccccc1Nc1nc(Nc2ccc(N3CCN(C)CC3)cc2OC)ncc1Cl	105%[activator]
O=C(NC1CCC1)c1ccc(C#Cc2cccc(F)c2)nc1	-4%
O=C(c1cn(Cc2cncn2Cc2ccc(Br)cc2)cc1-c1cccc2ccccc12)N1CCOCC1	98%[activator]

Further entries follow.
SMILES	nsP2pro inh
CNC(=O)c1cccc(-c2ccc3c(N4CCOC[C@@H]4C)nc(N4CCOC[C@@H]4C)nc3n2)c1	-18%&-13%
COc1cc(C(=O)NC(c2ccccc2Cl)c2cc(Cl)c3cccnc3c2O)cc(OC)c1OC (configuration not stated)	25%
O=c1nc(-c2ccccn2)sc2ccccc12	?
COc1cccc(CN(C(=O)CC(C)(C)C)C2CC(C(=O)N3CCNCC3)N(Cc3ccc4c(c3)OCO4)C2)c1 (configuration not stated)	7%
COCCN1CCN(Cc2ccc(-c3n[nH]c4c3C(=O)c3c(NC(=O)NN5CCOCC5)cccc3-4)cc2)CC1	29%
CCOC(=O)Nc1ccc(NCc2ccc(F)cc2)nc1N	-1%
COc1c(O)cc2c(c1O)[C@@H]1O[C@H](CO)[C@@H](O)[C@H](O)[C@H]1OC2=O	?
COc1ccc(-c2oc3c(CC=C(C)C)c(OC4OC(CO)C(O)C(O)C4O)cc(O)c3c(=O)c2OC2OC(C)C(O)C(O)C2O)cc1 (configuration not stated)	-6%
O=C(Nc1ccc([N+](=O)[O-])cc1)Nc1ccc([N+](=O)[O-])cc1	-8%
N#C/C(=C1\Nc2ccccc2S1)c1ccnc(NCCc2cccnc2)n1	79%[activator]
CNC(=O)c1ccccc1Nc1cc(Nc2ccc(N3CCOCC3)cc2OC)ncc1C(F)(F)F	-28%
OCC(O)CN1CCN(c2ccccc2)CC1 (configuration not stated)	-11%
COc1cc(Cc2cnc(N)nc2N)c(C(C)C)cc1OC	1%
O=C1NC(=O)C(c2cnc3ccccn23)=C1c1cn2c3c(cc(F)cc13)CN(C(=O)N1CCCCC1)CC2	49%[activator]
Cn1ncc(Cl)c1-c1cc(C(=O)N[C@H](CN)Cc2ccc(F)c(F)c2)sc1Cl	12%
CN1CCC(Nc2ncc3ncnc(Nc4ccc(F)c(Cl)c4)c3n2)CC1	24%
Cc1c(C(=O)NCCCO)cnn1-c1nc(-c2cccc(C(F)(F)F)c2)cs1	37%
Cc1ccc(C(=O)Nc2ccc(CN3CCN(C)CC3)c(C(F)(F)F)c2)cc1C#Cc1cnc2[nH]ncc2c1	67%
FC(F)(F)c1ccc(Nc2nc(-c3c(C(F)(F)F)nc4ccccn34)cs2)cc1	5%
O=C(Nc1ccc2[nH]c(=O)oc2c1)C(=O)N1CCC(Cc2ccc(F)cc2)CC1	-5%
CC(=O)N1CCN(NC(=O)c2ccc(F)cc2)CC1	-4%
N#Cc1cc(F)cc(-c2nc(-c3ccccn3)no2)c1	-6%
c1cc(Nc2cc(C3CC3)[nH]n2)nc(Nc2ccc3nc[nH]c3c2)n1	83%[activator]
CN1CCN(c2cc3c(cc2F)c(=O)c(C(=O)O)cn3-c2ccc(F)cc2)CC1	-6%
COc1ccc(CCN(C)CCCOc2nsc(-c3ccccc3)n2)cc1OC	6%

Molecules from the list above that contain a tert-butyl group, in the order listed:
SMILES	nsP2pro inh
CC(C)(C)c1ccc(S(=O)(=O)c2cnc(SCC(=O)Nc3ccc(F)c(Cl)c3)[nH]c2=O)cc1	?
CC(C)(C)CC(=O)OCC(=O)[C@@]1(O)CC[C@H]2[C@@H]3CCC4=CC(=O)C=C[C@]4(C)[C@H]3[C@@H](O)C[C@@]21C	2%
Cn1ncnc1COc1nn2c(-c3cc(F)ccc3F)nnc2cc1C(C)(C)C	-5%
CC(C)(C)c1ccc(-c2nc3c(N4CCN(Cc5ccc6nccnc6c5)CC4)cccc3[nH]2)cc1	21%
CC(C)(C)Sc1c(CC(C)(C)C(=O)O)n(Cc2ccc(Cl)cc2)c2ccc(OCc3ccc4ccccc4n3)cc12	28%
CC(=O)O[C@@]12CO[C@@H]1C[C@H](O)[C@@]1(C)C(=O)[C@H](O)C3=C(C)[C@@H](OC(=O)[C@H](O)[C@@H](NC(=O)OC(C)(C)C)c4ccccc4)C[C@@](O)([C@@H](OC(=O)c4ccccc4)[C@H]21)C3(C)C	7%
COc1cccc(CN(C(=O)CC(C)(C)C)C2CC(C(=O)N3CCNCC3)N(Cc3ccc4c(c3)OCO4)C2)c1 (configuration not stated)	7%

(next part)
SMILES	nsP2pro inh
Cc1cccc(Nc2nc(N[C@@H]3CCCC[C@H]3N)ncc2C(N)=O)c1	1%&1%
COc1ccc(NC(=O)c2ccc(-c3ccc(C(=N)N)cc3C)cc2)cc1N1CCN(C)CC1	18%
Cc1cc(-c2cc(O)ccc2Cl)cc2nnc(Nc3ccc(OCCN4CCCC4)cc3)nc12	52%[activator]
CC(C)c1nnc(-c2ccc(-c3ccccc3)nc2)n1-c1cccc2nonc12	-7%
COc1cc(N2CCOCC2)ccc1Nc1ncc(Cl)c(Nc2ccccc2NS(C)(=O)=O)n1	-3%
CC1=C(c2ccc(NC(=O)c3c(F)cccc3F)cc2)CN(c2nccs2)CC1	-8%
Cc1c[nH]c2nccc(Oc3c(F)cc(Nc4cc(Cl)nc(N)n4)cc3F)c12	115%[activator]
CS(=O)(=O)N1CCc2c(-c3cnc(N)nc3)nc(N3CCOCC3)nc21	-5%
COc1cc(NC(=O)c2cc(C3CC3)on2)c(OC)cc1Cl	-5%
COc1cc(N2CCC(N(C)C)CC2)ccc1Nc1ncc(Cl)c(Nc2ccccc2P(C)(C)=O)n1	15%
CCCNCCc1ccc(NS(=O)(=O)c2ccc(OC(F)(F)F)cc2)cc1	3%
COc1cccc(OCCCN)c1-c1cc(Nc2cnc(C#N)cn2)n[nH]1	149%[activator]
Cn1ncc(Cl)c1-c1cc(C(=O)NC(CN)Cc2ccc(F)c(F)c2)oc1Cl (configuration not stated)	78%&27%[activator]
COc1ccc(-c2ccc(-c3cn(C(=O)N4CCCCC4c4ccccc4)nn3)cc2)cc1 (configuration not stated)	-13%
COc1ncc(Nc2ncc([C@H](C)N3CCN(S(C)(=O)=O)CC3)cc2-c2nc(C)nc(N)n2)cc1F	?
O=C(NCCCN1CCC2(CC1)OCc1ccccc12)[C@H]1CCCN1Cc1ccccc1	-9%
